# Screening results (PubChem)
# UUG fidelity: modulators of start codon recognition fidelity in yeast | S. cerevisiae UUG-firefly luciferase reporter, luminescence/redox ratio | activity score, % at 18.7 µM | 350,000 compounds, 0.13% hits;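 active means replicate mean at a twofold rise or more, about +100% in these data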;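 further: firefly luciferase made from a UUG start codon reports start codon fidelity; reporter light over untreated wells divided by growth signal over untreated wells; some hits fall short of that in this replicate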
# PABP polyA inh: PABP-poly(A) binding inhibition | 290,000 compounds, 1% hits | PABP-poly(A) RNA binding, fluorescence polarization | inhibition, % at 35 µM;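 active means 50% or more with normal probe brightness, or confirmed in later tests; inconclusive means above 50% with abnormal brightness, or retests that disagree; inactive means below 50% or failed in later tests; about a fifth of its hits are not listed in these tables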;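 further: calls also rest on retests at 20 µM and on dose response follow-up; controls were probe without protein and protein plus probe with vehicle; some compounds called inactive have numbers as strong as hits; many hits fall short of the cut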
# Rce1 inhib: blocks yeast Ras-converting enzyme | calls only | yeast membranes, quenched prenylated peptide cleavage fluorescence | AID 2563 | 290,000 compounds, 0.27% hits;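 active means fall in fluorescence gain of 50% or more versus controls, with final raw signal at or below 3038400; inconclusive means same 50% fall but final raw signal above 3038400; inactive means fall in fluorescence gain under 50%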;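 further: plate controls were neutral control wells for no effect and wells lacking membranes for full effect; tested at 10 µM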
# Target sequence (Q03530 whole entry, looked up): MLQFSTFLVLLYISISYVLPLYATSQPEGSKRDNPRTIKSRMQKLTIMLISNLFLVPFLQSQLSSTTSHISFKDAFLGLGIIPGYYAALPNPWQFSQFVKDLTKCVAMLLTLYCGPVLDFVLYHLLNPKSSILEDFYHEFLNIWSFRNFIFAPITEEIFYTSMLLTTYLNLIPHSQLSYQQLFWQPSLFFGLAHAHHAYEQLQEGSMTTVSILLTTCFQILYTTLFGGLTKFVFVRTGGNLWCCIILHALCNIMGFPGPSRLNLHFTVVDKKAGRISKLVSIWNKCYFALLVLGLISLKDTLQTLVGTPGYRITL
# MT1-MMP act inh: MT1-MMP (human) activation inhibition; P50281; HT1080 RFP-PRO-GFP cells, GFP/RFP ratio fluorescence, overnight; percent of plate control window, DMSO zero; GFP/RFP ratio change, % at 20 µM; 360,000 compounds, 0.061% hits;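 active means GFP/RFP ratio change of at least 30% with cell ATP level not reduced by more than half and red fluorescence within 50% of control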; further: strong numbers were not always called active
#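 Test system: HT1080 RFP-PRO-GFP cells; Benchmarks: DMSO and RFP-L50D-GFP cell wells; Timing: cells overnight before dosing, compound overnight, 37 °C, 5% CO2; Compound: one 20 µM compound dose with 1% DMSO; Read-out: GFP/RFP fluorescence ratio.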
# CSC inhib: cancer stem cell inhibition. 300,000 compounds, 1.1% hits. AID 2717. inhibition, % at 7.5 µM. cancer stem cell-like cells viability, luminescence;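 active means mean at 75% or more and at least half the replicates too; inconclusive means mean and replicates disagree; tested in HMLE shEcad cells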;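 further: 0% = median of negative and 100% = median of positive control wells; the first replicate is given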
# eIF4H FP inh: inhibitors of RNA binding by human eIF4H | Q15056 | eIF4H fluorescence polarization binding assay | inhibition, % at 35 µM | 290,000 compounds, 0.94% hits;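 active means 50% or more with normal probe brightness, or confirmed in later tests; inconclusive means above 50% with abnormal brightness, or retests that disagree; inactive means below 50% or failed in later tests; about a fifth of its hits are not listed in these tables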;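 further: calls also rest on retests at 20 µM and on dose response follow-up; 0% = protein and probe with vehicle and 100% = probe without protein; strong numbers were not always called active; many hits fall short of the cut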
# HIV Env fusion: HIV envelope-mediated fusion inhibition; HeLa-JRFL Env/CEM21 cell fusion, luciferase; inhibition, % at 12.3 µM; 360,000 compounds, 1.1% hits;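 active means mean replicate inhibition score of at least 50 and every replicate individually at or above 50; inconclusive means only one of the two criteria met; inactive means mean below 50 and not all replicates reaching 50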;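 further: 0% = plate neutral controls and 100% = maraviroc near 300 nM; one replicate is shown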
# eIF4H FP inh retest: recorded beside eIF4H FP inh, whose call it bears; inhibition, %; compound at 20 µM; confirmation average;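 mean of two retest wells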
# PABP polyA inh retest: recorded beside PABP polyA inh, whose call it bears; inhibition, %; compound at 20 µM; confirmation repeats;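 mean of two retest wells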
# MT1-MMP act inh RFP: recorded beside MT1-MMP act inh, whose call it bears; RFP signal change, %; measured here: RFP expression control read;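 0 = vehicle wells; hits needed this value within 50% of zero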
# * hit, by the source's call; i = inactive; ? = inconclusive; nt = not tested or not shown; & = joins results of further samples.
SMILES,UUG fidelity,PABP polyA inh,Rce1 inhib,MT1-MMP act inh,MT1-MMP act inh RFP,CSC inhib,eIF4H FP inh,HIV Env fusion,others
Cc1ccc(O)c(Cn2nnc3ccccc32)c1,-14,nt,i,9,-9,-6,nt,-35,
O=C(COc1ccc(S(=O)(=O)N2CCCC2)cc1Cl)NC1CCCC1,1,-7,nt,-2,-6,nt,0,nt,
Cn1c(=O)c2c(nc(NCCc3ccccc3)n2CC(=O)NCCc2ccccc2)n(C)c1=O,-4,-11,i,-5,-4,-14,2,nt,
CC1CCCN(CCCNC(=O)c2coc3nc4ccccc4nc23)C1 (centres undefined),-10,20,i,2,5,0,23,nt,
O=C(N/N=C/C(Cl)=C/c1ccccc1)c1ccccn1,nt,-5,i,-3,0,7,-10,-62,
COc1ccc2[nH]cc(CCNS(=O)(=O)c3ccccc3)c2c1,-12,2,i,3,2,-14,2,13,
Cc1cccc(NC(=O)c2ccc(S(=O)(=O)N(C)CC3CCCO3)cc2)c1C (centres undefined),15,-12,i,0,0,-5,24,-16,
Cc1oc(-c2ccccc2)nc1CSc1nc2c(c(=O)[nH]1)CCC2,-21,-17,i,4,-1,-8,-9,-4,
C/C=C(\C)C(=O)N[C@@H](C)CN1C2=NC[C@H](C(C)C)N2C[C@H]1Cc1ccc(OC)cc1,-10,3,i,-1,3,nt,-4,-22,
NC(=O)c1ccccc1NC(=S)NC(=O)CCc1ccccc1,-21,3,i,3,-4,59,9,24,
C#CCN(CC=C)C(=O)c1ccc2nc(C3CCCCC3)oc2c1,7,0,i,-1,-4,-6,-12,-5,
O=C(Nc1ccc(OC(F)(F)F)cc1)C1CC(=O)N(Cc2ccco2)C1 (centres undefined),2,nt,nt,-1,5,-2,nt,-1,
CCCNC(=O)C1CNc2ccccc2O1 (centres undefined),nt,-2,i,3,11,-5,6,nt,
CC[n+]1ccc(C(=O)NCc2ccccc2)cc1,-13,10,i,-1,1,-9,-2,-3,
COc1ccc(N2CCN(C(=O)CNS(=O)(=O)c3ccc(C)cc3)CC2)cc1,nt,1,i,0,2,-5,4,17,
Cc1ccc(-c2nnc(SCC(=O)NCC3CCCO3)n2C)cc1 (centres undefined),nt,0,i,-1,3,-7,2,nt,
Cn1c(SCC(=O)N2CCOCC2)nc(O)cc1=O,7,10,i,6,5,4,-11,-33,
Cc1ccc(-c2csc3ncnc(-n4nnc5ccccc54)c23)cc1C,nt,4,i,1,2,3,3,-26,
FC(F)(F)c1cccc(NC(=S)N(CCCN2CCCC2)Cc2cccn2Cc2ccc(Cl)cc2)c1,-25,-14,i,-4,-8,130*,-9,12,
COc1ccc(N=C2SCC(=O)N2c2ccc(OC)cc2)cc1,-10,6,i,6,3,-1,-2,nt,
CCOCC(=O)Nc1cc(C(=O)OC)cc(C(=O)OC)c1,nt,-6,i,-2,4,19,-10,5,
CCn1c(=O)cc(SCC(=O)NCc2cccnc2)c2ccccc21,-1,7,i,6,2,-13,-9,-15,
CC1(C)OC(=O)C(=NNc2ccccc2)C(=O)O1,-22,9,i,1,1,-18,8,-3,
COC(=O)c1ccc(SCC(=O)NC2CCCC2)c([N+](=O)[O-])c1,nt,-2,i,1,0,6,2,1,
CCOc1ccc(NC(=O)Nc2ccc3nccnc3c2)cc1,3,-2,i,1,-1,6,-10,nt,
C=CCOc1ccccc1CN1CCC(n2nccc2NC(=O)c2ccccc2)CC1,8,-2,i,0,2,12,-20,11,
C[C@@H]1CN([C@@H](C)CO)S(=O)(=O)c2ccc(Br)cc2O[C@H]1CN(C)Cc1ccccn1,-11&8&9,nt,nt,1,1,nt,nt,-2,
Cc1ccc(Cl)cc1NC1=NC(=S)N(C(C)C)C12CCCCC2,-5,6,i,-33,-28,2,-4,23,
Cc1ccc2[nH]c(=O)c(CC(=O)O)c(-c3ccccc3)c2c1,-14,-1,i,3,0,-10,-4,10,
CCc1ccc(Oc2cc(C)nc(N)n2)cc1,-5,-6,i,-1,1,-5,-3,-124,
COc1ccc(CC(NC(C)=O)C(=O)NC2CCN(c3c(Cc4ccccc4)c(C)nc4ncnn34)CC2)cc1OC (centres undefined),nt,-12,i,nt,nt,-7,-3,23,
O=C(CNC(=O)c1ccc([N+](=O)[O-])cc1)N/N=C\c1ccc(OC(=O)c2ccccc2)cc1,-13,-39,i,6,4,2,-17,-81,
CN(C)c1ccc(/C=C(\NC(=O)c2ccccc2)C(=O)NCc2cccnc2)cc1,-11,8,i,3,4,nt,49,6,
CCOC(=O)C(NC(=O)c1ccc(OC)cc1)(N1CCOCC1)C(F)(F)F (centres undefined),8,-1,i,1,2,-5,-10,24,
CCc1nc(Nc2ccccc2O)c2oc3ccccc3c2n1,-31,-3,i,-1,-1,-1,-8,-6,
Cc1ccc2cc(C=O)c(N3CCOCC3)nc2c1C,-19,2,i,-2,3,-2,-13,-2,
COc1ccc(-n2c(NN)nc3sc4c(c3c2=O)CCCC4)cc1,-4,-8,i,1,-4,14,-8,3,
COc1ccc(OC)c2sc(NC(=O)CCSc3ccccc3)nc12,-16,-1,i,11,-1,42,7,-38,
CN(C)/C=N/c1ncc(C(=O)c2ccc3ccccc3c2)s1,-22,7,i,2,-1,11,-3,-10,
CCCN1CCC(=NNc2ccc(S(N)(=O)=O)cc2[N+](=O)[O-])CC1,9,-12,i,7,5,2,-11,3,
CS(=O)(=O)N(CC(=O)N1CCCC1)c1ccc(Cl)cc1,-10,-4,i,-2,-4,-3,-5,3,
NC(=S)N/N=C/c1ccccc1[N+](=O)[O-],nt,10,i,2,-1,-6,-16,-24,
O=C(Nc1nnc(C(F)(F)F)s1)c1c(F)cccc1F,10,-4,i,-2,-1,1,-6,0,
O=c1/c(=C/c2ccco2)sc2n1CN(c1cccc(Br)c1)CN=2,-3,74*,i,-3,2,-12,51*,-25,
COCCn1cnc2c1c(=O)n(CC(=O)Nc1cc(C)on1)c(=O)n2Cc1ccccc1,-1,-9,i,14,7,-1,-14,nt,
CC(=C\C(=O)O)/C(=C/c1ccc(C)o1)C(=O)O,-6,-1,i,1,6,3,80,nt,eIF4H FP inh retest=-4;PABP polyA inh retest=8
N#CCCN1CCN(S(=O)(=O)c2ccc(S(=O)(=O)N3CCCC3)cc2)CC1,-7,-6,i,-3,3,12,-5,2,
CC1(C(=O)O)CCC(C(=O)NNC(=O)c2ccccc2Cl)C1(C)C (centres undefined),-2,nt,i,1,4,-3,nt,10,
CCC(=O)Nc1ccc(NC(=O)CSc2nnnn2-c2ccc(OC)cc2)cc1,-12,5,i,-3,-5,-20,-2,-2,
CCOC(=O)CSc1nc2c(c(=O)[nH]c(=O)n2C)n1CCc1ccccc1,-13,-2,i,2,1,-8,-10,nt,
Cc1c(C(=O)N(C)C)c2ccc(Cl)cc2n1O,0,6,i,3,1,-15,-1,-1,
COCC(=O)Nc1cc([N+](=O)[O-])ccc1OC,nt,-6,i,2,7,-3,-1,-20,
COCCNC(=O)C1CCCN(C(=O)c2ccc3ccccc3n2)CC1 (centres undefined),-1,nt,nt,1,6,nt,nt,-16,
CC(C)NCCCOc1ccc(Cl)cc1Br,-17,3,i,-8,-2,20,-2,-246,
N#Cc1ccc(C23CC4(C2)[C@H](CN(CC2CCCCC2)[C@@H]4c2ccccc2)C3c2ccc(Cl)nc2)cc1 (some centres undefined),3,1,i,-29,-15,15,-4,-14,
C=CCn1c(SC2CCOC2=O)nc2sc(CC)cc2c1=O (centres undefined),1,7,i,-2,-3,-3,-6,nt,
O=C(NNC(=O)C1CCN(S(=O)(=O)c2ccccc2C(F)(F)F)CC1)c1ccccc1O,-12,nt,i,3,2,-9,nt,0,
CCCSc1nc(SCC(=O)NCc2ccccc2)c2c3c(sc2n1)COC(C)(C)C3,-13,-4,i,-4,-1,6,-8,-9,
CC(C)OC(=O)C1C(=O)CC(C)(O)C(C(=O)OC(C)C)C1c1ccc(F)cc1 (centres undefined),nt,6,i,0,-1,-16,8,nt,
Cc1ccc(C(=O)C2=C(O)C(=O)N(Cc3cccnc3)C2c2ccc(Cl)c(Cl)c2)o1 (centres undefined),-18,16,i,0,-1,-14,3,nt,

# 3 structures out of the list, sorted by SMILES length, falling:
SMILES,UUG fidelity,PABP polyA inh,Rce1 inhib,MT1-MMP act inh,MT1-MMP act inh RFP,CSC inhib,eIF4H FP inh,HIV Env fusion,others
Cn1c(=O)c2c(nc(NCCc3ccccc3)n2CC(=O)NCCc2ccccc2)n(C)c1=O,-4,-11,i,-5,-4,-14,2,nt,
CN(C)c1ccc(/C=C(\NC(=O)c2ccccc2)C(=O)NCc2cccnc2)cc1,-11,8,i,3,4,nt,49,6,
CC1(C(=O)O)CCC(C(=O)NNC(=O)c2ccccc2Cl)C1(C)C (centres undefined),-2,nt,i,1,4,-3,nt,10,

# (continued)
SMILES,UUG fidelity,PABP polyA inh,Rce1 inhib,MT1-MMP act inh,MT1-MMP act inh RFP,CSC inhib,eIF4H FP inh,HIV Env fusion,others
N#CC1=C(N)N(c2ccc(Cl)c(Cl)c2)C(=O)C1,nt,6,i,-5,3,-1,?,-4,
CN(CC(=O)Nc1cccc2ccccc12)C(=O)/C=C/c1cccs1,nt,0,i,-7,-2,16,3,10,
COC(=O)c1cccc(C(=O)N2CCCC(C(=O)c3cc(F)ccc3F)C2)c1 (centres undefined),nt,2,i,1,3,-6,-5,2,
CC(Oc1ccc(Cl)cc1)C(=O)NCCCn1ccnc1 (centres undefined),nt,3,i,-5,5,-1,4,nt,
COCCNC(=O)c1cc(-c2ccccc2)n(CC2CC(c3ccc(OC)cc3)=NO2)n1 (centres undefined),3,nt,i,3,-5,6,nt,12,
CC(C)CC(COCc1cccc(Cl)c1)N1CCN(C(=O)c2ccc(C(F)(F)F)cc2)CCC1=O (centres undefined),0,9,i,-8,-15,6,3,59*,
CN1CCN(c2ncnc3c2[nH]c2ccc(F)cc23)CC1,-16,-5,nt,-1,0,-4,8,nt,
C=CCC[C@@H](Cc1ccc(F)cc1)C(=O)OC[C@H](Cc1c[nH]c2ccccc12)NC(=O)[C@@H](CC=C)CC(=O)N(CCO)Cc1ccccc1,-15,nt,nt,-13,-24,nt,nt,16,
COc1ccc(Cl)cc1NS(=O)(=O)c1ccc2c(c1)NC(=O)CCS2,13,6,i,-8,0,6,3,1,
CC(C)CCN(Cc1ccco1)S(=O)(=O)c1csc(C(N)=O)c1,2,12,i,4,0,20,-20,9,
Cc1ccc2c(c1)C1(C)C(C(C)(C)N2C=O)C1(Cl)Cl (centres undefined),-5,-6,i,-1,-3,-4,0,15,
Cn1cccc1/C=N/NC(=O)c1cc2ccccc2cc1O,-15,-4,i,2,4,-8,-17,-28,
COC(=O)c1cc(C(=O)N2CCN(c3ccccc3OC)CC2)cc([N+](=O)[O-])c1,nt,-2,i,8,-8,-9,-6,-164,
CC(C)c1cc(C(=O)NNC(=S)NC2CCCCC2)cs1,-30,-2,i,2,-6,-5,2,-39,
CC(=O)Oc1ccccc1C(=O)N1CCN(S(=O)(=O)c2ccc3ccccc3c2)CC1,13,-4,i,-1,-4,-6,4,5,
O=C(Nc1cc(Cl)ccc1O)C1CC(c2c(F)cccc2Cl)=NO1 (centres undefined),0,4,i,-8,-2,2,-7,-5,

# An excerpt; count on the stated rates, not on these rows.
